High-throughput results from PubChem.
RN4220 kill = kills Staphylococcus aureus RN4220; 330,000 tested, 0.33% active; inhibition, % (test concentration not listed); AID 1259311; S. aureus RN4220 growth, OD600, 16 h;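 active means z-score of -3 or lower and OD600 up to 0.18 on both plates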;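 further: plate controls were untreated cells for no effect and reference antibiotic for full effect; stock transfer was 100 nL into about 80 µL; one replicate is shown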
PrP UTR inh = suppresses PrP 5' UTR mRNA reporter expression. 340,000 tested, 0.35% active. inhibition, % (no concentration beside the values). cell-based PrP 5' UTR mRNA reporter, plate reader;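 active means every replicate at 50% or more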;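 further: 0 = median of the neutral control wells; tested in H4 reporter cells; numbers are from one replicate; inactives centre near -14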
Sa ugtP lethal = kills S. aureus RN4220 lacking UgtP; 330,000 tested, 0.54% active; AID 1259309; growth inhibition, % (concentration not given with the values); S. aureus RN4220 ugtP deletion, OD600 growth, 16 h; some inactives read as strong as hits;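 active means z-score under -3 and OD600 up to 0.15 on both plates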;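 further: plate controls were untreated wells for no effect and antibiotic for full effect; wells of about 80 µL received 100 nL stock; the first replicate is given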
Mtb hypoxia inh = inhibitors of hypoxia-regulated fluorescent reporter in Mycobacterium tuberculosis. M. tuberculosis hypoxia-regulated fluorescent reporter, fluorescence. fluorescence inhibition, % (concentration not given with the values). 300,000 tested, 0.1% active;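 active means 35 to 45% if threefold the growth effect, above 45% if 1.5-fold the growth effect; inactive means the rest, general growth blockers included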;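 further: wells of about 50 µL received 100 nL stock; 0% = vehicle wells and 100% = reference inhibitor wells; whole bacteria with a GFP reporter of the hypoxia response; strong numbers were not always called active; many hits fall short of the cut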
Bead autofluor = flagged as autofluorescent in microsphere protease counterscreen; compound autofluorescence counterscreen, microsphere flow cytometry; stronger effect = higher value; fluorescence intensity (test concentration not listed); 360,000 tested, 3.1% active;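 active means at least 3 SD above the mean of all compounds, about 16000 in these data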;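 further: 100 nL of 1 mM stock went into each well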
BJeLR lethal = kills HRASV12-expressing BJeLR cells. BJeLR (HRASV12) viability, CellTiter-Glo ATP luminescence, 48 h; reference of the scale not given here. inhibition, % (test concentration not listed). 300,000 tested, 0.17% active;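 active means replicate mean above 50%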;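 further: 50 nL library stock added to about 25 µL; numbers are from one replicate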
Mtb hypoxia inh growth = second read-out of Mtb hypoxia inh, no call of its own (marks repeat the call); growth inhibition, %; measured here: M. tuberculosis growth (absorbance);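 0% = vehicle and 100% = reference antibiotic; read after six days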
Starred values were filed as active, the others as inactive; · = no result given; & = joins results of further samples.

SMILES | RN4220 kill | PrP UTR inh | Sa ugtP lethal | Mtb hypoxia inh | Mtb hypoxia inh growth | Bead autofluor | BJeLR lethal
O=C(Cn1nnc(-c2ccccc2)n1)N1CCCCC1 | 5.6 | -5 | 11 | 12 | 5 | 2946 | -8
Cc1cccc(CSc2nc3c(c(=O)[nH]2)CCC3)c1 | 3.7 | -15 | 4 | 6 | 17 | 2569 | -4
COc1cc2c(cc1OC)-c1c3c(cc4c1C(C2)N(C)CC4)OCO3 (stereo not given) | 2.4 | · | 4 | 8 | 9 | · | ·
Cn1c(=Nc2ccc(N3CCOCC3)cc2)ccc2ccccc21 | 5.8 | -5 | 0 | 6 | 1 | 2906 | 4
Cc1nc(CS(=O)(=O)c2ccccc2)cc(Sc2ccccc2Cl)n1 | -0.4 | -23 | -7 | · | · | 2315 | 9
O=C(NCCCn1ccnc1)c1nc(Cn2cc(Br)cn2)no1 | 3.6 | 10 | 4 | 2 | 1 | 4405 | 0
CC(C)CC(NC(=O)Nc1cccc(Cl)c1)C(=O)O (stereo not given) | 1.2 | · | -4 | -2 | 7 | · | ·
Cc1[nH]c2ccccc2c1/C=C/c1cc[n+](C)cc1 | · | -11 | · | · | · | 12505 | 2
CCCNS(=O)(=O)c1cc(Br)cc2c1N(C(=O)CC)CC2 | 4.6 | -19 | 2 | 6 | 0 | 9183 | -7
Cc1nn(CC(=O)NCCCN2CCCC2=O)c(C)c1[N+](=O)[O-] | -3.9 | · | -6 | -4 | 2 | 2765 | ·
Cc1cc(C)c(NS(=O)(=O)c2ccc3c(c2)NC(=O)C(C)C(=O)N3)c(C)c1 (stereo not given) | 13 | -7 | 22 | -8 | 0 | 4378 | -10
CCCN1CNc2c(c(=O)[nH]c(=S)n2CCc2ccccc2)C1 | -1.9 | -18 | 16 | 13 | 7 | 3211 | ·
COc1cccc2[nH]c(C(=O)NCCCN3CCCC3=O)cc12 | 4.7 | -4 | 10 | 5 | 3 | 5187 | 2
Cc1ccc(/C(O)=C/c2nc3ccccc3oc2=O)cc1 | 7.4 | · | 0 | · | · | 6186 | 4
Cc1ccc(CNC(=O)CNC(=O)[C@@H]2Cc3ccccc3CN2C(=O)OC(C)(C)C)cc1 | 6.5 | 3 | -3 | 0 | 8 | 5517 | -1
COc1ccc(CCNCC(O)c2ccccc2)cc1 (stereo not given) | 4.3 | -29 | 4 | -2 | 4 | 5044 | 2
CCOC(=O)C1CCN(C(=O)/C=C/c2ccc(S(=O)(=O)N3CCOCC3)cc2)CC1 | 4.9 | -29 | -8 | 6 | 3 | 3309 | ·
O=S(=O)(NNc1ccc(Cl)nn1)c1ccc(F)cc1 | 0.3 | -21 | 10 | 16 | 3 | 10817 | 3
CCOC(=O)Cn1nc(-c2ccccc2)c2cnc3ccc(CC)cc3c21 | 16 | -5 | 9 | -9 | 11 | 6517 | -8
COc1ccc(C2/C=C\CN(C(=O)c3ccccc3)CC(=O)N2Cc2ccc(F)cc2)cc1 (stereo not given) | · | -10 | · | · | · | 3457 | 1
O=[N+]([O-])c1cccc(C=NNc2ncc(Br)cn2)c1 | 2.6 | · | 6 | 0 | -13 | · | ·
C#CCNC(=O)C1=C[C@@H](c2ccc(C#C)cc2)C[C@@H](OCCCCO)O1 | · | -9 | · | · | · | 3142 | 12
CN(C)N=C/C=C1\CCC/C(=C\c2ccc(F)c(F)c2)C1=O | 6.5 | · | -4 | 6 | 12 | · | ·
CCOC(=O)c1[nH]c(C)c(C(=O)/C=C/c2ccc(C(=O)O)cc2)c1C | 2.4 | 2 | 1 | -7 | 4 | 5114 | -6
CCCN1CCC(NCc2cn(C)nc2-c2ccc(Oc3ccccc3)cc2)CC1 | 1.0 | 2 | 5 | 2 | 13 | 3573 | 16
CCN(CC)c1ccc(NC(=O)Cn2c(C(C)NC(=O)c3ccc(C)cc3)nc3ccccc32)cc1 (stereo not given) | -1.2 | -18 | -11 | 7 | 31 | 5490 | -1
O=C(c1ccco1)N1CCN(S(=O)(=O)c2ccc(C3CCCCC3)cc2)CC1 | 4.6 | -3 | 0 | · | · | 4788 | 32
CC(C)N1CCN(Cc2cnc(-c3ccccc3)s2)CC1CCO (stereo not given) | 4.8 | 3 | 13 | -7 | 1 | 4362 | 5
Cc1nc2ccccc2c2oc(C(=O)N3CCC(N4CCCCC4)CC3)cc12 | -3.7 | -15 | 0 | 7 | 10 | 6910 | ·
CCN1CCN(C(=O)/C=C\C(=O)O)CC1 | · | -12 | · | · | · | 2944 | 1

Three compounds drawn at random from those above:
SMILES | RN4220 kill | PrP UTR inh | Sa ugtP lethal | Mtb hypoxia inh | Mtb hypoxia inh growth | Bead autofluor | BJeLR lethal
CCN1CCN(C(=O)/C=C\C(=O)O)CC1 | · | -12 | · | · | · | 2944 | 1
CCOC(=O)c1[nH]c(C)c(C(=O)/C=C/c2ccc(C(=O)O)cc2)c1C | 2.4 | 2 | 1 | -7 | 4 | 5114 | -6
CCCN1CCC(NCc2cn(C)nc2-c2ccc(Oc3ccccc3)cc2)CC1 | 1.0 | 2 | 5 | 2 | 13 | 3573 | 16

New compounds follow
SMILES | RN4220 kill | PrP UTR inh | Sa ugtP lethal | Mtb hypoxia inh | Mtb hypoxia inh growth | Bead autofluor | BJeLR lethal
OCCC1CN(Cc2ccc3ncccc3c2)CCN1Cc1ccccc1 (stereo not given) | 5.7 | -20 | -3 | 13 | 2 | 4480 | 2
COc1ccc(-c2cc(C3CCN(CC(O)C(F)(F)F)CC3)[nH]n2)cc1 (stereo not given) | 1.2 | -5 | -7 | -16 | 4 | 3710 | -3
O=C(NCC1CCCO1)c1cccc(S(=O)(=O)NCc2ccccc2)c1 (stereo not given) | 3.1 | -30 | -2 | 7 | 1 | 4613 | 8
CN(C)S(=O)(=O)c1ccccc1C#N | 3.6 | -10 | 2 | -4 | 0 | 6183 | 0
Cc1[nH]n(-c2ccccc2)c(=O)c1C=Nc1ccc(S(=O)(=O)N(C)C)cc1 | 4.0 | -10 | 9 | 11 | 2 | 2090 | 9
c1ccc(C2=Nc3c(ccc4ccccc34)C(c3ccncc3)=NN2)cc1 | -11 | -23 | 12 | -3 | 6 | 3708 | ·
O=C(CSC1=NNC(c2ccccn2)S1)Nc1cccc(Cl)c1 (stereo not given) | 2.1 | -24 | 16 | -7 | -12 | 3921 | 14
Cn1c(N)c(C(=O)COC(=O)COc2cc(Cl)c(Cl)cc2Cl)c(=O)n(C)c1=O | -6.4 | -15 | -17 | -3 | -3 | 3528 | ·
CN(C(=O)c1cccn(Cc2ccccc2)c1=O)c1ccccc1 | 4.0 | -18 | 0 | 3 | 3 | 4468 | -6
O=C(NCc1ccccc1F)c1cc(=O)[nH]c2ccccc12 | -2.3 | -7 | -2 | -2 | -3 | 4183 | -9

In the list so far, two have two or more sulfur atoms:
SMILES | RN4220 kill | PrP UTR inh | Sa ugtP lethal | Mtb hypoxia inh | Mtb hypoxia inh growth | Bead autofluor | BJeLR lethal
Cc1nc(CS(=O)(=O)c2ccccc2)cc(Sc2ccccc2Cl)n1 | -0.4 | -23 | -7 | · | · | 2315 | 9
O=C(CSC1=NNC(c2ccccn2)S1)Nc1cccc(Cl)c1 (stereo not given) | 2.1 | -24 | 16 | -7 | -12 | 3921 | 14

Continuation:
SMILES | RN4220 kill | PrP UTR inh | Sa ugtP lethal | Mtb hypoxia inh | Mtb hypoxia inh growth | Bead autofluor | BJeLR lethal
Cc1ccc(C(=O)N2CCN(c3cccc(C)c3C)CC2)o1 | 5.1 | -21 | -1 | 10 | -4 | 5538 | -7
COC(=O)c1ccccc1C(=O)N1CCCC(C(=O)c2cc(F)ccc2F)C1 (stereo not given) | 4.5 | -9 | 3 | -3 | 4 | 3890 | -34
COc1ccc(C(=O)COC(=O)c2sc(C)nc2C)cc1Cl | 4.1 | · | -4 | 12 | 12 | 5406 | ·
O=C(Nc1cc(C(F)(F)F)ccc1Cl)c1cc(C2CC2)on1 | 0.1 | -23 | 9 | 4 | 6 | 11337 | -2
CCCC(=O)Nc1nnc(-c2cccc(OCC)c2)s1 | -0.8 | -51 | -3 | 12 | 9 | 4498 | 0
O=C(Nc1ccc(N2CCOCC2)cc1)c1ccc([N+](=O)[O-])o1 | 16 | -16 | 84 | · | · | 3558 | -11
Cc1cc(C)cc(NC(=O)c2ccc(S(=O)(=O)N(C)CC3CCCO3)cc2)c1 (stereo not given) | -2.1 | -27 | -4 | 9 | 0 | 5148 | 2
CC(C)CNC(=O)c1c2c(nc3ccccc13)-c1ccccc1CC2 | 0.9 | -17 | 9 | -3 | 10 | 8207 | -3
CCO/C=C1\C(=O)N(c2ccc(OCC)cc2)C(=O)c2ccccc21 | 6.0 | -24 | 7 | 1 | 0 | 3294 | -2
O=C(Nc1ccc(N2CCN(C(=O)c3cccs3)CC2)cc1)c1ccccc1F | 2.6 | -24 | 9 | 3 | 5 | 3826 | -2
Clc1ccc(N2CCCCCC2)nn1 | 2.3 | -34 | 8 | 9 | 10 | 9701 | 2
O=C(CCc1ccccc1)Nc1ncc2c(n1)CCCC2=O | 6.7 | -7 | -7 | -1 | -1 | 3032 | 6
Cc1c(Cl)cccc1NC(=S)N1CCN(c2ncccn2)CC1 | -2.7 | 0 | 8 | 8 | 5 | 2016 | 11
Fc1cccc(Oc2nc3ccccc3n3cccc23)c1 | -9.3 | 2 | 66 | · | · | 2750 | 0
COc1ccc(NC(=O)CCNS(=O)(=O)c2cccc(C(C)=O)c2)cc1S(N)(=O)=O | 0.4 | -23 | -1 | 9 | 1 | 4052 | 4
CCC(C)(C)NC(=O)CN(C(=O)CCC(=O)Nc1ccccn1)c1ccc(F)c(Cl)c1 | 5.0 | -26 | 12 | 10 | 8 | 4027 | 0
COc1cccc(CN(C)C(=O)c2ccccc2Sc2ccccc2C#N)c1OC | 2.1 | -23 | 4 | 0 | 15 | 3074 | 0
O=C(O)Cn1c(-c2ccccc2)nc2ccccc21 | -4.6 | -6 | 4 | · | · | 3657 | -4
O=Cc1ccc(-c2ccc(C(=O)O)cc2)o1 | 0.1 | -17 | 10 | 3 | 1 | 3383 | 9
CC(C)(C)C1COC(=O)C(Cc2ccc(F)cc2)CCC=CCC(CC(=O)NC(CO)Cc2ccccc2)C(=O)N1 (stereo not given) | 2.7&2.4&3.5 | · | 3&3&-1 | 9&-1&2 | 10&11&12 | · | ·
Nc1ccc(C(=O)OCC(=O)Nc2ccc3c(c2)OCO3)cc1[N+](=O)[O-] | 0.8 | -8 | 1 | -2 | 12 | 2623 | 0
CSc1ccccc1NC(=O)COc1ccccc1Cl | 20 | -30 | 17 | · | · | 3333 | -5
Cc1ccc(NC(=O)c2cc3ccccc3o2)cc1 | 16 | -81 | -2 | 2 | 6 | 3934 | 2
CNC(=S)NN=CC1=CCC2CC1C2(C)C (stereo not given) | 1.9 | · | -3 | 7 | 5 | · | ·
CCCn1c(=O)c2ccccc2n2c(SCC(=O)Nc3cc(C)on3)nnc12 | 3.7 | -18 | -12 | -5 | 3 | 3639 | 5
Cc1cc(C)cc(NC(=O)CSc2nc(=O)n(CCCN3CCOCC3)c3c2CCCC3)c1 | 1.8 | -28 | 4 | 13 | 23 | 4205 | 11
COc1cc(NC(=S)N2CCc3ccccc3C2)cc(OC)c1 | 0.4 | -23 | 4 | 6 | 6 | 2891 | -6
O=C1C(=O)N(Cc2cccnc2)C(c2ccc(Br)cc2)/C1=C(\O)c1ccc2c(c1)OCCO2 (stereo not given) | 7.2 | -6 | 6 | 9 | 0 | 4943 | 3
Cc1nn(Cc2ccc(C(=O)N3CCCC3)o2)c(C)c1[N+](=O)[O-] | 1.3 | -6 | -1 | -3 | 3 | 5800 | 0
O=C(Nc1ccc(Oc2ccc3ccccc3c2)cc1)c1ccco1 | 76 | -13 | 68 | -93 | -30 | 3621 | 3
COc1ccc(NC(=O)ON=Cc2ccncc2)cc1 | 0.6 | · | 0 | 2 | 5 | · | ·
Nc1sc2c(c1C(=O)NC1CC1)CCCC2 | 3.3 | -12 | 5 | 9 | 5 | 3036 | ·
Cc1ccc2nc(SCc3nnc(-c4cccs4)o3)[nH]c2c1 | 3.3 | -11 | -1 | -78 | -11 | 6478 | -18
CN1CCN(C(=O)/C(=C/c2ccccc2Cl)NC(=O)c2ccccc2)CC1 | 3.8 | 1 | 15 | -3 | 4 | 3511 | 2
CCN1CCN(CCCN(Cc2cccs2)C(=S)Nc2ccccc2C)CC1 | 9.6 | -23 | 3 | 2 | 14 | 4305 | -7
COC1(OC)N=C(N)C2(C#N)C(c3ccc4c(c3)OCO4)C12C#N (stereo not given) | 21 | -15 | 23 | 7 | 3 | 2415 | 12
CS(=O)(=O)N1CCC(C(=O)N2CCN(c3ccc(F)cc3)CC2)CC1 | 4.7 | -22 | 4 | 12 | 12 | 3803 | -1
